From PubChem BioAssay
Ecoli rRNA inh = reduced GFP signal of wild-type E. coli, primary screen, bacterial rRNA inhibitor project, GFP/RFP fluorescence, OD600, single point; 350,000 tested, 1.6% active; E. coli WT GFP vs humanized-ribosome RFP mutants, 24 h; active compounds read low; DMSO median 0, no signal -100; GFP signal change (wild-type ribosome), % (no concentration beside the values);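 active = significant combined selectivity score with lowered wild-type GFP, culture density cut under 30%, mutant RFP and density less affected; inactive = any of these conditions unmet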; note: one replicate is shown; some compounds called inactive have numbers as strong as hits
Ecoli rRNA inh OD600 = also measured in Ecoli rRNA inh; calls as there; OD600 change, %; measured here: OD600 growth;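 optical density of the mix in the first replicate; 0 = DMSO median and -100 = no signal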
Ecoli rRNA inh RFP = recorded beside Ecoli rRNA inh, whose call it bears; RFP signal change, %; measured here: RFP humanized mutant strains;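 first replicate; 0 = DMSO median and -100 = no signal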
Numbers without * were called inactive; & = joins results of further samples. A portion of the library. The share of hits here may be higher or lower than overall.

Start of the listing, in advance, 4 compounds:
Sequence of screens: Ecoli rRNA inh | Ecoli rRNA inh OD600 | Ecoli rRNA inh RFP
COc1ccc(CN(C)C[C@@H]2Oc3c(NC(=O)Nc4ccc(OC)cc4)cccc3C(=O)N([C@H](C)CO)C[C@H]2C)cc1
    -6 | -15 | -1.5
Cc1ccc(S(=O)(=O)NCCCCCCNS(=O)(=O)c2ccc(C)cc2)cc1
    -6 | -31 | 1.7
CCS(=O)(=O)Nc1ccc2c(c1)OC[C@H](C)NC[C@@H](C)[C@@H](OC)CN(C)C2=O
    1 | 6 | 0.2
C[C@H](CO)N1C[C@H](C)[C@H](CN(C)Cc2ccc(C(=O)O)cc2)Oc2c(NC(=O)Nc3ccc(F)cc3)cccc2C1=O
    5 | 11 | -2.7

The whole of this part, repeating the preview:
Sequence of screens: Ecoli rRNA inh | Ecoli rRNA inh OD600 | Ecoli rRNA inh RFP
COc1ccc(CN(C)C[C@@H]2Oc3c(NC(=O)Nc4ccc(OC)cc4)cccc3C(=O)N([C@H](C)CO)C[C@H]2C)cc1
    -6 | -15 | -1.5
Cc1ccc(S(=O)(=O)NCCCCCCNS(=O)(=O)c2ccc(C)cc2)cc1
    -6 | -31 | 1.7
CCS(=O)(=O)Nc1ccc2c(c1)OC[C@H](C)NC[C@@H](C)[C@@H](OC)CN(C)C2=O
    1 | 6 | 0.2
C[C@H](CO)N1C[C@H](C)[C@H](CN(C)Cc2ccc(C(=O)O)cc2)Oc2c(NC(=O)Nc3ccc(F)cc3)cccc2C1=O
    5 | 11 | -2.7
CC=Cc1ccc2n(c1=O)C[C@@H]1[C@@H](CO)[C@H](C(=O)Nc3ccc(-c4ccccc4)cc3)N(CC)[C@H]21 (mixture of isomers)
    -48 | -71 | 19
CO[C@H]1CN(C)C(=O)c2cc(NC(=O)Nc3cc(F)ccc3F)ccc2OC[C@@H](C)N(C(=O)c2cnccn2)C[C@H]1C
    -3 | -5 | 2.1
Cc1ccc(S(=O)c2ccc([N+](=O)[O-])c3nonc23)cc1 (stereo unspecified)
    -3 | -6 | 16
O=C(N[C@H]1CC[C@@H](CCNC(=O)C2CCOCC2)O[C@H]1CO)c1ccncc1
    2 | 11 | -1.5
C[C@@H]1CCCCO[C@@H](CN(C)C(=O)Nc2ccc3c(c2)OCO3)[C@H](C)CN([C@@H](C)CO)C(=O)c2cc(NC(=O)NC3CCCCC3)ccc2O1
    0 | 4 | 4.8
Cc1ccc(S(=O)(=O)N[C@H]2CC[C@H](CCNS(=O)(=O)Cc3ccccc3)O[C@H]2CO)cc1
    -5&-5 | -9&-20 | 2.1&5.7
O=C(C[C@H]1CC[C@H]2[C@@H](COC[C@@H](O)CN2C(=O)Nc2ccc(C(F)(F)F)cc2)O1)NC1Cc2ccccc2C1
    -58 | -80 | -18
CCNC(=O)C[C@@H]1CC[C@@H]2[C@H](COc3ccc(NC(=O)Nc4ccccc4OC)cc3C(=O)N2C)O1
    1 | 4 | 0.1
C[C@H]1CCCCO[C@H](CN(C)C(=O)Nc2ccccc2)[C@@H](C)CN([C@@H](C)CO)C(=O)c2cc(NC(=O)Cc3ccccc3)ccc2O1
    -2 | -5 | 1.2
CC(C)CC#Cc1ccc2c(c1)O[C@H](CN(C)C(=O)c1cnccn1)[C@H](C)CN([C@@H](C)CO)S2(=O)=O
    0 | -2 | -0.3
CC1(C(=O)NS(=O)(=O)c2cccc(Cl)c2)CCN1C(=O)c1cccc(F)c1 (stereo unspecified)
    14 | 19 | -2.0
CC(=O)Nc1ccc(/C=N/NC(=O)CC2CCCCC2)cc1
    -7 | -21 | 5.5
CCCC(=O)Nc1ccc2c(c1)C(=O)N(C)C[C@H](OC)[C@@H](C)CN(C)[C@@H](C)CO2
    1 | 3 | -2.3
O=S(=O)(c1ccccc1)N1CCCCN2[C@@H](CO)[C@@H](c3ccc(C#Cc4ccccn4)cc3)[C@@H]2C1
    -2 | -3 | 12
CSc1ccc(CN2CCC(C)(Oc3ccc(-n4ccnc4)cc3)C2)cc1 (stereo unspecified)
    -8 | -62 | 9.0
CN1C(=O)c2cc(NS(=O)(=O)c3cccc(F)c3)ccc2OC[C@@H]2O[C@@H](CC(=O)N3CCc4ccccc4C3)CC[C@@H]21
    0 | -20 | 2.2
CO[C@H]1CN(C)C(=O)c2ccc(NC(=O)Nc3cc(F)ccc3F)cc2OC[C@H](C)N(C)C[C@H]1C
    0 | -3 | 0.5
COc1ccc(CNS(=O)(=O)c2cc(Br)ccc2Br)cc1
    -30 | -47 | -5.8
C[C@H]1CN([C@@H](C)CO)S(=O)(=O)c2ccc(C#Cc3ccccc3)cc2O[C@H]1CN(C)C(=O)Nc1ccccc1
    2 | 4 | -1.9
C[C@H](CO)N1C[C@H](C)[C@@H](CN(C)Cc2ccc(C(F)(F)F)cc2)Oc2c(NC(=O)CCCCCC(=O)Nc3ccccc3N)cccc2C1=O
    -7 | -6 | -0.3
COc1ccccc1CNC(=O)C[C@@H]1C[C@@H]2c3cc(NC(=O)CN(C)C)ccc3O[C@@H]2[C@H](CO)O1
    2 | 1 | -1.2
COc1ccccc1NC(=O)N[C@H]1CC[C@H](CCn2cc(C3(O)CCCC3)nn2)O[C@@H]1CO
    1 | 2 | -2.1
C[C@@H]1CCCCO[C@H](CN(C)CC2CCCCC2)[C@H](C)CN([C@H](C)CO)C(=O)c2cc(NS(=O)(=O)c3cccs3)ccc2O1
    -2 | -2 | 12
Cc1cccc(S(=O)(=O)N2CCCCN3[C@@H](CO)[C@H](c4ccc(-c5ccncc5)cc4)[C@@H]3C2)c1
    -8 | -17 | 8.8
O=C(C[C@@H]1CC[C@H](NC(=O)c2cnccn2)[C@H](CO)O1)NCc1ccccc1F
    2 | 2 | 0.4
C[C@@H]1CCCCO[C@@H](CN(C)C(=O)C2CCCCC2)[C@@H](C)CN([C@@H](C)CO)C(=O)c2cc(NC(=O)Cc3ccccc3)ccc2O1
    3 | 3 | 1.3
C/C=C/c1ccc2c(c1)O[C@@H](CN(C)C(=O)Nc1cccc(F)c1)[C@H](C)CN([C@@H](C)CO)S2(=O)=O
    -1 | -18 | -0.5
O=C(C[C@H]1CC[C@@H](NC(=O)C2CCC2)[C@@H](CO)O1)NCCCN1CCOCC1
    4 | 7 | -3.7
CCS(=O)(=O)Nc1ccc2c(c1)C(=O)N(C)C[C@H](OC)[C@H](C)CN(Cc1nccs1)[C@@H](C)CO2
    0 | -1 | -0.3
O=C(O)C[C@@H]1C[C@@H]2c3cc(NC(=O)C4CCOCC4)ccc3O[C@@H]2[C@H](CO)O1
    3 | 5 | 0.7
COc1ccccc1-c1ccc([C@@H]2[C@@H](CO)N3CCCCN(Cc4ccncc4)C[C@H]23)cc1
    4 | -10 | -2.8
C[C@H](CO)N1C[C@H](C)[C@H](CN(C)C(=O)Nc2cccc3ccccc23)OCc2cnnn2CCCC1=O
    -2&-1 | 4&-6 | -1.7&1.8
Cn1cc([C@]2(O)C(=O)N(c3ccccc3)c3ccccc32)c2ccccc21
    -39 | -70 | -3.6
C[C@H]1CN([C@@H](C)CO)S(=O)(=O)c2ccc(C3=CCCC3)cc2O[C@H]1CN(C)Cc1ccncc1
    -6 | -17 | -0.1
CO[C@H]1CN(C)C(=O)c2cc(NC(=O)c3ccno3)ccc2OC[C@H](C)NC[C@@H]1C
    7 | 3 | 0.3
COCC(=O)N1CC2(C1)[C@H](c1ccccc1)[C@@H](CO)N2Cc1ccccc1OC
    -1 | 1 | -0.8
C[C@@H]1CN([C@@H](C)CO)C(=O)c2cc(-c3cccnc3)cnc2O[C@H]1CN(C)C(=O)C1CCC1
    2 | 5 | 0.0
CN(C)C(=O)C[C@@H]1C[C@H]2c3cc(NS(=O)(=O)c4ccccc4)ccc3O[C@H]2[C@H](CO)O1
    3 | 7 | -4.0
CCCNC(=O)N1[C@H](CO)[C@H](c2ccccc2)[C@H]1CNC(C)=O
    11 | -11 | -4.7
O=C(O)C[C@@H]1CC[C@@H](NC(=O)Nc2cc(F)ccc2F)[C@H](CO)O1
    -1 | -2 | -0.2
C[C@H]1CCCCO[C@H](CN(C)CC2CCCCC2)[C@@H](C)CN([C@@H](C)CO)C(=O)c2cc(NC(=O)Nc3cccc4ccccc34)ccc2O1
    -7 | -22 | 15
CCS(=O)(=O)N[C@H]1CC[C@H](CC(=O)Nc2ccc(-c3ccccc3)cc2)O[C@H]1CO
    -3 | -6 | 2.1
Cc1ccc(-c2cnc3c(c2)C(=O)N([C@H](C)CO)C[C@@H](C)[C@@H](CN(C)C(=O)c2ccc(F)cc2)O3)cc1
    -6 | -4 | -1.5
C[C@H]1CN([C@@H](C)CO)C(=O)c2cccc(NS(=O)(=O)c3ccc(F)cc3)c2O[C@H]1CN(C)Cc1ccc2c(c1)OCO2
    1 | 7 | 0.4
O=C(Cc1cc(C(F)(F)F)cc(C(F)(F)F)c1)Nc1c(-c2ccccc2)[nH][nH]c1=O
    -22 | -52 | -8.3
COc1ccc(S(=O)(=O)N2CC[C@H]3[C@@H](CO)N(C)c4ccc(C5=CCCCC5)cc4[C@H]32)cc1
    -3 | 11 | -6.1

(list continues)
Sequence of screens: Ecoli rRNA inh | Ecoli rRNA inh OD600 | Ecoli rRNA inh RFP
CS(=O)(=O)Nc1ccc2c(c1)[C@@H]1C[C@H](CC(=O)NCc3ccncc3)O[C@H](CO)[C@@H]1O2
    4 | 10 | -2.2
COc1ccc(S(=O)(=O)N(C)C[C@@H]2Oc3ccc(NS(=O)(=O)c4ccccc4)cc3CC(=O)N([C@H](C)CO)C[C@H]2C)cc1
    -1 | 1 | -2.9
C[C@@H]1CN([C@@H](C)CO)C(=O)c2cccc(NS(=O)(=O)c3ccc(F)cc3)c2O[C@H]1CN(C)Cc1ccc(-c2ccccc2)cc1
    0 | 0 | 1.5
COc1ccc(NC(=O)C2Cc3c(-c4ccccc4Oc4ccccc4)ccnc3O2)cn1 (stereo unspecified)
    -23 | -30 | -4.8
COc1cccc(CN2CC3(CCN(C)CC3)c3c([nH]c4cc(OC)ccc34)[C@H]2CO)c1
    0 | 6 | 2.0
C[C@H](NC(=O)C[C@H]1C[C@H]2c3cc(NS(C)(=O)=O)ccc3O[C@H]2[C@H](CO)O1)c1ccccc1
    -2 | -10 | 0.8
CC(=O)NC[C@H]1[C@@H](c2ccc(C3=CCCC3)cc2)[C@@H](CO)N1C(=O)CN(C)C
    4 | 9 | 0.5
COc1ccc(NC(=O)N(C)C[C@@H]2Oc3ccc(NS(=O)(=O)c4ccc(OC)cc4)cc3CC(=O)N([C@H](C)CO)C[C@@H]2C)cc1
    6 | 8 | 0.2
CCCCN(CCCNC(=O)c1ccc2c(c1)NC(=O)CN2C)c1ccccc1
    -46 | -69 | -9.9
COc1ccc2c3c(n(C)c2c1)[C@H](CO)N(C(=O)Nc1ccc(F)cc1)CC31CCN(C(=O)NC2CCCC2)CC1
    -1 | -1 | 3.8
C[C@@H]1CN([C@@H](C)CO)C(=O)c2cc(NC(=O)Cc3ccccc3)ccc2O[C@@H](C)CCCCO[C@H]1CN(C)C(=O)Nc1ccccc1
    1 | 6 | 0.4
CCCC#Cc1cnc2c(c1)C(=O)N([C@@H](C)CO)C[C@@H](C)[C@@H](CN(C)C(=O)Cc1ccccc1)O2
    4 | 10 | 0.5
C[C@@H]1CN([C@H](C)CO)C(=O)c2cc(NC(=O)Nc3cccc4ccccc34)ccc2O[C@H]1CN(C)S(=O)(=O)c1ccc(F)cc1
    0 | 1 | -1.2
CO[C@@H]1CN(C)C(=O)c2ccc(NC(=O)c3cccc(F)c3)cc2OC[C@@H](C)N(C(C)=O)C[C@H]1C
    -3 | -2 | -2.5
N#C[C@H]1[C@@H](c2ccccc2-c2ccccc2)[C@@H](CO)N1C(=O)NC1CCCC1
    5 | -19 | -2.8
COCC(=O)N1C[C@@H](C)[C@@H](OC)CN(C)C(=O)c2ccc(NC(=O)Nc3ccccc3)cc2OC[C@@H]1C
    2 | -1 | -1.0
O=C(C1CCCC1)N1CC(=O)N2[C@@H](CO)[C@H](c3ccc(Br)cc3)[C@@H]2C1
    1 | 4 | -9.4
C[C@@H]1CN([C@@H](C)CO)C(=O)c2cccc(NS(C)(=O)=O)c2O[C@@H]1CN(C)S(C)(=O)=O
    6 | 10 | -0.8
C[C@@H]1CCCCO[C@@H](CN(C)CC2CC2)[C@@H](C)CN([C@H](C)CO)C(=O)c2cc(NC(=O)Nc3ccccc3)ccc2O1
    4 | 4 | -0.2
C[C@@H]1CN([C@@H](C)CO)S(=O)(=O)c2ccc(C#Cc3ccncc3)cc2O[C@@H]1CN(C)C(=O)C1CCCCC1
    -3 | -6 | 0.9
Cc1cc2c(nc1C)CCCN2Cc1ccc(Br)cc1
    5 | 11 | 18
CCCC(=O)Nc1ccc2c(c1)C(=O)N(C)[C@H]1CC[C@H](CC(=O)OC)O[C@H]1CO2
    2 | 1 | -0.4
CCCC(=O)Nc1ccc2c(c1)C(=O)N(C)C[C@H](OC)[C@H](C)CN(C(=O)c1ccncc1)[C@@H](C)CO2
    -1 | 1 | -1.7
Cn1cnc(S(=O)(=O)N2CCCCN3[C@@H](CO)[C@H](c4ccc(-c5cccc(F)c5)cc4)[C@@H]3C2)c1
    3 | 11 | 3.0
Cc1cccc(S(=O)(=O)N(C)C[C@@H]2OCc3ccccc3-c3c(n(C)c4ccccc34)C(=O)N([C@@H](C)CO)C[C@H]2C)c1
    -1 | 0 | 0.2
CNC[C@H]1Oc2ccc(NS(=O)(=O)c3cccs3)cc2CC(=O)N([C@H](C)CO)C[C@H]1C
    4 | -2 | 0.4
CN1C(=O)c2cc(NC(=O)Cc3ccccc3)ccc2OC[C@H]2O[C@H](CC(=O)NC3CCC3)CC[C@H]21
    5 | 0 | 0.2
